# Platelet DG rel: modulates dense granule release in human platelets; human platelet-rich plasma, SFLLRN dense granule ATP release, luminescence; inhibition, %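 (compounds screened at 7.5 µM in platelet-rich plasma)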; actives 0.22% (n = 300,000);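 active = mean replicate score, as percent of positive control, at or above 50; inconclusive = mean below 50 but at least one replicate at or above 50; inactive = mean and every replicate below 50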
# HSP90 refold inh: blocks HSP90-mediated luciferase refolding in reticulocyte lysate. inhibition, % at 5.6 µM. AID 1789. actives 0.91% (n = 290,000). Rabbit reticulocyte lysate, luciferase refolding luminescence, 3 h;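 active = inhibition above the screen-wide mean plus 3 SD, computed separately per campaign, cut at about 16% in these data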;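 also: 0% = DMSO wells and 100% = 60 µM geldanamycin wells; inhibitors lower the luminescence because luciferase stays unfolded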
# HSF1 activator: increases HSF-1 driven luciferase reporter signal. NIH3T3-HGL HSF-1 luciferase reporter, MG132, 8 h; 100% = twice DMSO control signal. activation, % at 9 µM. actives 1.7% (n = 300,000). AID 504408;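 active = mean replicate activation of at least 50% with a set share of replicates each reaching 50%; inconclusive = only one of those two conditions met; inactive = mean below 50% and too few replicates reaching it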;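 also: 0% = median of the neutral control wells and 100% = twice that signal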
# AI-2 QS modul: modulators of Vibrio harveyi AI-2 quorum sensing system. actives 0.4% (n = 300,000). Vibrio harveyi JMH597 AI-2 luminescence/OD600 ratio, 9 h; hits give low values; strain lacks LuxN and CqsS sensors; 0 = neutral-control median. activity change, % at 7.5 µM; in the data active = activity change below about -75%, passing the limit was not always enough; inconclusive = no clear call, values can overlap the other calls;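 also: luminescence divided by OD600 gain over 9 h not by final OD600 alone; inactives centre near 13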
# HSF1 inhib: HSF1 inhibition; NIH3T3-HGL HSE-luciferase, MG132-induced, luminescence 8 h; hits give low values; activity change, negative = inhibition, % at 7.5 µM (by protocol); actives 0.77% (n = 300,000); AID 2098;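 active = more than half of replicate wells show activity change below -50%, luminescence cut by over half; inconclusive = some wells, but at most half, below -50%; inactive = no replicate well below -50%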;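 also: luciferase reports HSF-1 transcriptional activity via heat shock element; 0% = median of DMSO wells and -100% = zero luminescence signal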
# KLF5 inh: suppresses KLF5 promoter-driven expression | DLD-1 KLF5 promoter-luciferase reporter, luminescence | actives 0.23% (n = 290,000) | inhibition, % at 5 µM | AID 1700;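 active = inhibition above a per-plate limit of that plate's mean compound inhibition plus 3 SD, cut at about 60% in these data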;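 also: 0% = DMSO wells and 100% = LY294002 at 200 µM; higher means less KLF5 promoter-driven luciferase light; inactives centre near -14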
# IEC-6 tox: kills IEC-6 intestinal cells in KLF5 counter-screen | inhibition, % at 5 µM | IEC-6 cytotoxicity, luminescence viability | AID 1825 | actives 0.78% (n = 290,000); in the data active = inhibition above about 22%;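 also: 0% = plate median of test compound wells and 100% = cytotoxic reference compound wells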
# aSyn 5UTR inh: 5' untranslated region of α-synuclein, MLPCN primary screen. actives 0.82% (n = 300,000). alpha-synuclein 5'UTR reporter, inhibitor activity. AID 1813. inhibition, % (tested at 7.5 µM); in the data active = inhibition above about 60%; inconclusive = no clear call, values can overlap the other calls;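 also: H4 neuroglioblastoma cells stably carrying SNCA 5'UTR luciferase fusion; 0% = DMSO wells and 100% = positive control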
# SKKanGAS inh: blocks kanamycin growth of S. pyogenes SKKanGAS strain. AID 1662. inhibition, % at 7.5 µM. BacTiter-Glo, 6 h. actives 1.3% (n = 300,000);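 active = mean replicate score, as percent of positive control median, at least 50; inconclusive = mean below 50 but one replicate at or above 50; inactive = mean and every replicate below 50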;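 also: strain carries kanamycin resistance gene driven by streptokinase promoter and grows in 40 µg/ml kanamycin; loss of luminescence reflects streptokinase promoter inhibition or plain growth inhibition; 0% = median of DMSO wells and 100% = positive control at its reference dose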
# Numbers without * were called inactive; u = inconclusive; x = no result given; & = joins results of further samples.
SMILES,Platelet DG rel,HSP90 refold inh,HSF1 activator,AI-2 QS modul,HSF1 inhib,KLF5 inh,IEC-6 tox,aSyn 5UTR inh,SKKanGAS inh
COc1cc(-c2nn3c(C4CCCCC4)nnc3s2)cc(OC)c1OC,1,0,-19,21,-9,0,-2,49,-6
COc1ccc(C2(CN(C(C)=O)C(C)=O)CCCC2)cc1OC,0,4,1,6,2,4,6,-21,1
Nc1ccc(S(=O)(=O)Nc2ccnn2-c2ccccc2)cc1,0,x,18,u,10,x,x,-3,5
COc1ccccc1N1CCN(C2CCN(C(=O)c3cccs3)CC2)CC1,x,5,-1,4,-1,-16,-5,11,2
CCCSc1nc(C)c(CC(=O)OCC)c(=O)[nH]1,8,-1,-30,2,-13,-2,-8,-12,-2
CC(C)OC(=O)c1nn2c(C(F)(F)F)cc(-c3ccc(Br)o3)nc2c1Br,-1,1,-16,30,1,-8,4,-23,-9
CC1(C)Cc2c(C#N)c(N3CCOCC3)nc(-c3ccccc3)c2CO1,0,5,-22,13,-1,5,-4,18,-4
CCCCCC(=O)N1CC2(C)CN(C(=O)CCCCC)CC(C)(C1)C2=O,0,10,-40,28,-27,-22,-2,1,2
CC(CCC(=O)O)C1CC[C@@]2(C)C3C(=O)CC4C(C)(C)C(O)CC[C@]4(C)C3C(=O)C[C@]12C (stereo partly specified),-4,4,24,15,3,-11,2,9,7
CSc1nc2sc3c(c2c2nncn12)CCC3,8,6,11,21,-2,-5,5,7,4
Cc1cc(=O)oc(C)c1C(=O)NCC(C)NC(=O)c1c(C)cc(=O)oc1C (stereo unspecified),-1,-1,5,1,-1,-25,0,6,-3
Cc1cc(C)nc(NC(=O)c2ccc(OC(C)C)cc2)n1,8,-2,0,31,-1,-1,-3,-24,-1
O=C(CSc1nc2ccccc2s1)Nn1cnnc1,-8,0,9,38,1,-16,-1,2,-22
CN1CCCN(C(c2ccccc2)c2ccc(Cl)cc2)CC1 (stereo unspecified),-1,2,6,6,-1,-22,-3,-8,4
CCOC(=O)c1ccc(NC(=O)COc2ccccc2OC)cc1,-7,0,25,26,-6,4,4,-18,-14
NS(=O)(=O)c1cc2c(cc1C(F)(F)F)NCNS2(=O)=O,-9,0,-3,4,6,-24,-2,0,3
CC1CNCCN1S(=O)(=O)c1cccc2cnccc12 (stereo unspecified),-4&-3,1,-7&-6,10&18,0&-2,-14,-7,-1&37,1&-1
COCCOC(=O)c1c(C)oc2ccc(OC(=O)COc3c(F)c(F)c(F)c(F)c3F)cc12,-2,4,-3,4,-5,-49,8,-20,0
CC(Sc1ccc2ccccc2n1)C(=O)O (stereo unspecified),-2&1,7&-1,-4&-12,-4&-2,-4&-5,-4&-27,4&0,4&10,3&7
COCCOC(=O)c1c(C)nc(SCC(=O)Nc2ccc(OC)cc2)c(C#N)c1-c1ccco1,2,1,22,18,10,-34,-1,11,40
COc1ccc(OC)c(C(O)c2coc3ccc(O)c(CN4CCOCC4)c23)c1 (stereo unspecified),-7,7,1,10,-3,33,1,-21,2
CCN(CC)CCN1C(=O)C(=O)/C(=C(/O)c2ccc(F)cc2)C1c1ccncc1 (stereo unspecified),6,-3,-12,9,-8,-24,-1,2,3
COc1cc(C(=O)Nc2ccccn2)cc(OC)c1OC,-11,3,41,-9,7,-21,-1,-3,-2
CC(C)(C)c1cccc(/C=N/O)c1O,-7,0,66*,12,21,-4,-3,3,-1
COC(=O)C(NC(C)=O)(Nc1nc2ccc(S(C)(=O)=O)cc2s1)C(F)(F)F (stereo unspecified),5,0,15,22,-5,-4,-2,-8,-1
Nn1c(SCC(=O)Nc2ccc3c(c2)OCCO3)nnc1C(F)(F)F,5,0,-12,38,8,-30,2,-12,0
Cc1ccc2c(c1)C(CCN)C(=O)N2Cc1ccccc1 (stereo unspecified),u,11,-19,14,-3,-2,1,15,1
CC(C)(C)NC(=O)[C@H]1CC[C@H]2[C@@H]3CC[C@H]4NC(=O)C=C[C@]4(C)[C@H]3CC[C@]12C,4,3,-3,17,-7,-8,-3,-5,1
CC(=O)[C@H]1CC[C@H]2[C@@H]3CCC4=CC(=O)CC[C@]4(C)[C@H]3[C@H](O)C[C@]12C,3,-4,-1,22,-4,-8,-2,3,-5
COc1ccccc1-n1c(=O)c2c3c(sc2n2c(SC)nnc12)CCC3,2,0,-11,5,-5,-7,-5,-11,3
Cc1nc2sc3c(c2c(=O)o1)CC(C)(C)OC3,-17,2,24,-5,1,-31,-2,5,-13
COc1ccc(NC(=O)c2c(C)cc(=O)oc2C)c(OC)c1,11,0,7,12,-5,-43,-6,8,-4
COc1ccc(C(=O)N/C(N)=N/c2nc3ccccc3o2)cc1,-4,0,32,-8,21,-2,4,-216,-6
CCCCOc1cccc(-c2nnc(N)s2)c1,-10,-2,-8,-9,-7,-33,2,6,0
CC1CCN=C(N)S1 (stereo unspecified),-1,x,-7,9,0,x,x,0,-4
CCCn1nnc(NC(=O)c2cc(Br)cc(Br)c2OC)n1,-2,2,14,14,7,-5,-2,7,0
O=C1c2ccccc2C(=O)N1c1ncccn1,2,7,-39,4,-19,2,2,-4,-3
CC(=O)N=c1sc(S(N)(=O)=O)nn1C,-5,3,0,29,-2,-18,6,24,-3
CCNc1nc(NC(C)C)nc(N(C#N)C(C)C(=O)N(C)C)n1 (stereo unspecified),x,2,22,14,6,-23,3,17,8
Nc1nc2n(n1)C(c1ccc(F)cc1)CC(c1ccc(F)cc1)N2 (stereo unspecified),-3,-3,-9,24,-12,-4,5,16,0
CCOC(=O)c1c(C)n(C)c2ccc(OC)c(NC(=O)CN3CCCCC3)c12,2,6,-12,5,4,-2,4,12,1
COc1ccc(C2CC(c3ccc(C)cc3)Nc3nc(N)nn32)cc1 (stereo unspecified),-2,1,-34,11,-17,-14,0,22,5
Cc1cccc(-c2nnc3n2N=C(c2ccc(Br)cc2)CS3)c1,1,x,11,9,3,x,x,17,-5
CC1(C)CC(=O)C=C(NCCO)C1,-1,-1,19,11,-9,25,1,6,0
CC1(C)Cc2c(sc3ncn4nc(-c5ccco5)nc4c23)CO1,1,-1,-15,21,-2,-26,-5,2,-5
CC1CC(OC(=O)C(O)c2ccccc2)CC(C)(C)N1C (stereo unspecified),-1,x,0,10,3,x,x,3,-6
CN(CCCCCC(=O)/C=N/O)Cc1ccccc1,-13,4,-2,-4,-7,13,10,2,-15
C#CC1CN(Cc2ccccc2)CC(C#C)N1C (stereo unspecified),-2,-2,4,14,-5,-13,-4,-9,-3
COc1ccc(Cn2c(O)cc(=O)[nH]c2=O)cc1,-3,2,4,39,-1,-10,-4,-19,-4
Brc1ccc(-c2cnnc(N3CCCC3)n2)cc1,34,3,-4,13,6,5,-4,7,4

# (more compounds)
SMILES,Platelet DG rel,HSP90 refold inh,HSF1 activator,AI-2 QS modul,HSF1 inhib,KLF5 inh,IEC-6 tox,aSyn 5UTR inh,SKKanGAS inh
O=C1C=C(N2CCN(C3=CC(=O)CCC3)CC2)CCC1,2,6,-8,18,-6,-19,0,19,4
Cc1c(/C(O)=C2\C(=O)C(=O)N(CCN(C)C)C2c2cccs2)cnn1-c1ccccc1 (stereo unspecified),0,40*,-46,-4,-39,-61,5,-88,0
COc1cc(C2C(C(=O)c3cccs3)=C(O)C(=O)N2c2cc(C)on2)ccc1O (stereo unspecified),3,-2,-32,2,-14,7,1,15,5
COc1ccc(/C(O)=C2\C(=O)C(=O)N(Cc3ccco3)C2c2cc(OC)ccc2OC)cc1 (stereo unspecified),-9,0,-8,10,7,-67,-4,-16,3
Cn1ncc(N=Cc2ccccc2O)c1C(=O)Nc1ccccc1,0,-3,-19,18,-8,-22,-4,-25,-1
CCC(=O)Nc1cccc(-c2nnc(SCC(=O)NCc3ccco3)n2C)c1,0,0,8,7,-2,-28,1,12,-3
O=S1CCCSC1c1cccnc1 (stereo unspecified),10,-1,0,-9,-2,-1,-1,0,10
CCCNC(=O)N(C)c1nncnc1C(=O)NC,-1,-3,3,9,0,-22,-5,11,2
Cc1ccc2[nH]c3c(N4CCCCCC4)ncnc3c2c1,-6,-5,27,4,20,-41,7,-127,4
CCO/C([O-])=N/c1c[n+](N2CCOCC2)no1,-1,2,-19,17,-7,-6,3,-7,-5
O=C(O)c1cc2cccc(S(=O)(=O)N3CCOCC3)c2cc1O,1,0,-4,2,3,-6,-2,9,1
CC1(C)Cc2c(sc3nc4n(c(=N)c23)CCC4)CO1,1,1,-17,5,-4,2,-4,-9,2
COc1ccc2c(c1)n([O-])c1c([n+]2=O)CCC1,-7,-4,-11,14,-3,-8,-9,-1,6
CC(NC(=O)Nc1cccnc1)(C(F)(F)F)C(F)(F)F,1,-3,-3,6,-8,7,-3,0,2
O=C(OCCN1CCOCC1)C1(c2ccccc2)CCCCC1,-3,x,3,15,0,x,x,6,-2
NS(=O)(=O)c1cc2c(cc1Cl)NC(C1C[C@H]3C=C[C@@H]1C3)NS2(=O)=O (stereo partly specified),-12,3,-30,30,-31,-30,3,-80,18
O=C(CCN1CCCCC1)Nc1cccc(Cl)c1,12,7,42,43,16,10,2,-10,2
c1ccc(OCc2nn3c(-c4ccco4)nnc3s2)cc1,-5,-3,-19,-8,4,-13,3,-14,-8
Cc1nc(NS(=O)(=O)c2ccccc2)sc1NC(=O)OC(C)C,6,-6,-8,23,-2,-24,0,9,5
Cc1cc(=O)oc(C)c1C(=O)N1CCN(Cc2ccc3c(c2)OCO3)CC1,0,-2,-17,-11,-2,-2,0,6,-9
COc1ccc(C(=O)Nc2cccnc2)cc1C(=O)Nc1cccnc1,8,1,-2,36,9,-12,-3,0,-5
CC12CCC(C(=O)N(CCC#N)CCC#N)(CC1=O)C2(C)C (stereo unspecified),-7,0,-11,14,-3,-8,-8,-6,5
CCc1ccc2c(c1)C(C)=CC(C)(C)N2,11,2,-12,-1,-4,-17,-5,-23,-7
N#C/C(C(=O)N1CCCCC1)=C1\Nc2ccccc2S1,-21,-4,21,33,4,-78,3,-104,1
COc1ccc(S(=O)(=O)N2CCC(N3CCCCC3)CC2)cc1,3,2,4,4,-10,-51,0,10,-3
COc1ccccc1N(Cc1cc2cccc(C)c2[nH]c1=O)C(=O)C(C)C,-14,2,22,23,10,-46,-8,4,-17
CC(C)CC(=O)Nc1ncnc2c1C(=O)CC(C)(C)C2,x,-3,4,6,2,-23,-1,-41,5
O=C1c2ccccc2C(=O)N1CCN1CCc2ccccc21,-2,-3,31,10,25,-77,-8,-97,-1
CCC(NC(=O)NC1=NCCS1)(C(F)(F)F)C(F)(F)F,1,-3,6,23,-4,-12,-3,-21,3
COCCN(C(=O)Nc1ccccc1)c1ccccc1C,-5,0,0,6,0,13,-3,0,-4
CCOC(=O)CSc1nc2sc3c(c2c(=O)[nH]1)CC(C)(C)OC3,-3,-19,22,16,4,-24,-2,12,9
COc1ccc(O[C@H]2C=C[C@@H](c3ccccc3)O[C@@H]2COC(=O)CC/C(C)=N/O[C@@H](C)c2cc(-c3c(C)cc(C)cc3C)no2)cc1,-4,3,4,30,6,0,3,10,7

# Source: PubChem BioAssay (several laboratories)

# A portion of the library (hit frequency here may not be typical).
